Six1-Eya2 inh – qHTS Assay for Inhibitors of the Six1/Eya2 Interaction. activity change, % (no concentration beside the values). AlphaScreen GST-Six1/His-Eya2 binding, biochemical; hits give low values; control for the full effect not named in the record. 360,000 tested, 0.56% active. AID 651725, 2012; in the data active = activity change below about -65%; inconclusive = about -30% to -65%; inactive = above about -30%; further: on the % scale 0 is the no-effect control and ±100 the full control effect; compound concentration not given in the record
Target sequence (O00167 whole entry, looked up): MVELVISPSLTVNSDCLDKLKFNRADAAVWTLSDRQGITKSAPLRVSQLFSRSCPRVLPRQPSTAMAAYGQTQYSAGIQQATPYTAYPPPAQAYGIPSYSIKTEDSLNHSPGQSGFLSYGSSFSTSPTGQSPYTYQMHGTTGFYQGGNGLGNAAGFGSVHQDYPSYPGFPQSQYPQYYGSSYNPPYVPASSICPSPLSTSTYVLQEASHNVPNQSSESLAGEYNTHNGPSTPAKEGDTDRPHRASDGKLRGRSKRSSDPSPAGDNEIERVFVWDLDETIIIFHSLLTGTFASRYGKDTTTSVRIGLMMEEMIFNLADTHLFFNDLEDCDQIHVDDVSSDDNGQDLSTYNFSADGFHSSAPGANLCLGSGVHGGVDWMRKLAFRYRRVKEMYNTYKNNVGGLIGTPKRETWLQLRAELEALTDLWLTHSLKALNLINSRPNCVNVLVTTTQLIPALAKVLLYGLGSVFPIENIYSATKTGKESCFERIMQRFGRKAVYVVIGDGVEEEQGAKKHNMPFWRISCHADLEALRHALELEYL
Target sequence (Q15475 whole entry, looked up): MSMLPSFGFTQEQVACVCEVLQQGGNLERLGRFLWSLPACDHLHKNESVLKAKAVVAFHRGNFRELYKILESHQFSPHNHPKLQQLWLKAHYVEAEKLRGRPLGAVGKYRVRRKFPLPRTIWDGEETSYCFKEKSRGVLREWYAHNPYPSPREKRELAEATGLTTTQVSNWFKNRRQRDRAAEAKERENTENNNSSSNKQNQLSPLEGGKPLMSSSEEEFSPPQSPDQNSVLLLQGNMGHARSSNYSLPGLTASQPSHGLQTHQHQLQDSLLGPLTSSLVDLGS
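AlphaScreen luminescence read after one hour at 37 °C in darkness. Pin-transferred compounds met GST-Six1 and His-Eya2 protein (5X stock 250 nM/500 nM) plus glutathione donor and Ni-chelate acceptor beads (5X, 50 ug/mL).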
D2 agonist – Beta-Arrestin HTS for Positive Allosteric Modulators of the Human D2 Dopamine Receptor: Agonists | D(2) dopamine receptor (Homo sapiens), P14416 | DiscoveRx PathHunter D2 beta-arrestin, luminescence, 90 min; 100% = 57 uM dopamine signal | activation, % (test concentration not listed) | 360,000 tested, 0.084% active; in the data active = activation above about 40%; inconclusive = about 15% to 40%; inactive = below about 15%; further: compound concentration not given in the record; the text of the record calls up to 30% inactive
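DiscoveRx PathHunter D2 beta-arrestin cells (2,100/well) attached overnight, then compound-stimulated 90 min at 37 C in HBSS/10 mM HEPES/0.1% Tween-20 buffer; beta-galactosidase complementation read by luminescence after 1 h at ambient temperature. Dopamine 57 uM final (EC100) as control.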
D2 potentiator – Beta-Arrestin HTS for Positive Allosteric Modulators of the Human D2 Dopamine Receptor: Potentiators. DiscoveRx D2 beta-arrestin cells, luminescence, 90 min; 100% = 57 uM dopamine signal. potentiation, % (no concentration beside the values). 360,000 tested, 0.23% active; active = potentiation of 50% or more; inconclusive = 30% to 50%; inactive = 30% or less;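 further: compound concentration not given in the record; tested on top of an EC20 dose of dopamine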
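D2 cells co-treated with compound plus 50 nM dopamine (EC20) for 90 min at 37 deg C to detect potentiation. Beta-arrestin recruitment was read as enzyme-fragment luminescence after 1 h at ambient temperature. Full response was set by 57 uM dopamine.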
PINK1 expr mod – A Quantitative High throughput Screen to Identify Chemical Modulators of PINK1 Expression; PINK1 immunofluorescence, high-content cytometry, 24 h; Potency, µM (series often up to 76.6 µM), without a hit: at the top dose activation (PINK1 increase), usual class: activators; 410,000 tested, 0.2% active; AID 624263, 2012; active = well fitted activation curve with a large enough effect; inconclusive = small, poorly fitted or top-dose-only effect; inactive = flat fitted curve, though single readings scatter; cell line not stated here;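 further: potency means the concentration at half of the fitted maximal effect; % of control where 0% means no effect; nearly all actives have a fitted effect of over 65% in size; a mitochondrial uncoupler was the plate control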
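Cells are seeded, rested 12 hours, then given compound at five concentrations or DMSO for 24 hours. After fixation, blocking and antibody staining, PINK1 amount and mitochondrial localization are scored; CCCP serves as control.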
TRPML1 ag – qHTS for Agonists of the Human Mucolipin Transient Receptor Potential 1 (TRPML1); Mucolipin-1 (Homo sapiens), Q9GZU1; activation, % (no concentration beside the values); TRPML1-expressing cells, Ca2+ dye fluorescence, FDSS; host cell line not named in the record; reference of the full effect not given here; 410,000 tested, 0.12% active; in the data active = activation above about 50%; inconclusive = about 30% to 50%; inactive = below about 30%; further: 0% is about no effect; the text of the record puts the active cut at 80%
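TRPML1-DL cells, Tet-induced overnight (~16 h, 37 degrees C), loaded 45-90 min at room temperature with Ca8 no-wash calcium dye plus quencher. FDSS fluorescence: 10 s baseline, compound pin-transfer, 110 s agonist read, then EC80 54-4 (4uM final) and 110 s antagonist read.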
TRPML1 inh – qHTS for Inhibitors of the Human Mucolipin Transient Receptor Potential 1 (TRPML1) | Mucolipin-1 (Homo sapiens), Q9GZU1 | TRPML1-inducible cells, Ca2+ dye fluorescence, FDSS; hits give low values; inhibition of EC80 agonist-evoked calcium signal | activity change, negative = inhibition, % (concentration not given with the values) | 390,000 tested, 0.02% active | AID 624415, 2012; in the data active means activity change below about -50%; inconclusive means about -30% to -50%; inactive means above about -30%;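 further: stimulus is agonist 54-4 at its EC80 concentration; on the % scale 0 is the no-effect control and ±100 the full control effect; compound concentration not given in the record; the text of the record puts the active cut at -80%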
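TRPML1-DL cells, Tet-induced overnight (~16 h, 37 °C) at 1,500 cells/well, were loaded with Ca8 no-wash dye plus quencher for 45-90 min at room temperature. Compounds were pinned during FDSS kinetic reading; agonist 54-4 at EC80 (4 uM final) then added.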
Starred values were filed as active, the others as inactive; ? = inconclusive; / = not tested or not shown; & = joins results of further samples; [ ] = remark or other dose.

SMILES | Six1-Eya2 inh | D2 agonist | D2 potentiator | PINK1 expr mod | TRPML1 ag | TRPML1 inh
CC(C)Oc1ccc(C(=O)NCCCNC(=O)c2cccnc2)cc1 | 4 | -7.4 | -6 | -0.4% | 0.0 | 11
CC(Oc1ccccc1)c1ccnc(N)n1 (configuration not stated) | 9 | -3.6 | -7 | 1.4% | 0.0 | -3
C=CCn1c(SCC(=O)Nc2ccc(F)cc2)nc2ccccc2c1=O | 2 | -3.2 | 1 | -1.1% | 2.3 | 11
Cc1nn(S(=O)(=O)c2ccc(C(C)(C)C)cc2)c(C)c1S(=O)(=O)N1CCCCCC1 | / | / | / | -0.6% | -0.4 | 0
O=C1C(Cl)=C(N2CCC(C(=O)O)CC2)C(=O)c2ccccc21 | -19 | 3.2 | 7 | 8.8% | / | /
COc1ccc(-c2noc(N3CCC(C(=O)Nc4cc(OC)ccc4OC)CC3)n2)cc1 | -3 | 1.2 | -9 | -1.3% | 0.1 | -4
CC(=O)N1CCN(S(=O)(=O)c2ccc(C)cc2)C1C (configuration not stated) | -3 | -1.6 | -5 | -0.7% | -0.4 | 11
CC(=O)c1ccc(NC(=O)c2cn(-c3ccccc3)nc2-c2ccc(Br)cc2)cc1 | / | / | / | 2.8% | -0.4 | -1
COC(=O)c1ccc(Cl)cc1NC(=O)N1CCCn2nc(C)cc21 | / | / | / | 1.1% | -0.4 | -13
CCc1ccc(C2CC(=O)Nc3c2c(=O)n(C)c2ncnn32)cc1 (configuration not stated) | / | / | / | -1.0% | 0.3 | -24
O=C(NC(=S)N1CCN(c2ccc([N+](=O)[O-])cc2)CC1)c1ccccc1 | 6 | 3.3 | -2 | ? | -0.7 | 15
O=C(c1cc(-c2cccc(O)c2)on1)N1CCc2ccccc2C1 | -9 | -0.9 | 1 | -0.8% | 2.0 | 38
Cc1ccc(-c2nnc(-n3ncc(C#N)c3N)c3ccccc23)cc1C | 11 | -3.5 | -7 | 6.8% | 1.8 | 1
NNC(=O)CN1C(c2ccc(Br)cc2)=Nc2ccc(Br)cc2C1c1ccccc1 (configuration not stated) | -15 | -6.2 | -11 | 4.5% | 2.4 | 8
CCOC(=O)c1cnc2c(-c3ccc(Cl)cc3)c(C)nn2c1N | -1 | -1.1 | 5 | 9.3% | 4.2 | 6
C/C(CCC1CC(C)(C)OC1=O)=N\NC(N)=S (configuration not stated) | 5 | -5.1 | -2 | 2.3% | -0.2 | 2
Cc1cccc(N(C)S(=O)(=O)c2nnc(NC(=O)C(C)Oc3ccccc3)s2)c1 (configuration not stated) | / | / | / | 0.3% | 1.3 | 1
COc1ccccc1NC(=O)c1c(-c2ccc(C)cc2)nnc2ccccc12 | / | / | / | 0.9% | 0.2 | 2
CCOC(=O)c1cc(-c2ccc(OC)c(S(=O)(=O)N3CCN(c4ccccc4)CC3)c2)on1 | / | / | / | 0.7% | -0.6 | -15
O=C(COC(=O)c1ccccn1)Nc1nc(-c2cccc([N+](=O)[O-])c2)cs1 | -26 | 0.0 | -3 | 0.4% | -0.5 | 6
CCN(CC)c1ccc(NC(=O)CCS(=O)(=O)c2cccc3nsnc23)c(C)c1 | -12 | 1.1 | -5 | -0.5%&0.9% | -0.2&-1.1 | -2&-3
Cc1cc(Cl)ccc1NC(=O)C1CCCN1S(=O)(=O)c1ccc2c(c1)CCCC(=O)N2 (configuration not stated) | / | / | / | 1.3% | -0.5 | 35
COc1ccc(NC(C)=O)cc1NC(=O)CN1CCN(C2c3ccccc3-c3ccccc32)CC1 | -14 | -2.0 | 21 | -1.1% | 0.8 | 12
Cn1nc(C(F)(F)F)c(C#N)c1N1CCN(c2ccc(F)cc2)CC1 | 10 | -3.4 | -22 | -2.1% | 1.3 | 20
CCOC(=O)c1sc(=S)n(C)c1N | 13 | -0.3 | 4 | -0.4% | -0.4 | 2
SMILES | Six1-Eya2 inh | D2 agonist | D2 potentiator | PINK1 expr mod | TRPML1 ag | TRPML1 inh
CC(=O)c1nnn(-c2cccc(C#N)c2)c1C | -3 | -6.7 | 1 | 1.1% | 0.4 | 0
CCOc1ccc(CCNC(=O)c2[nH]c3cc(OC)ccc3c2Sc2ccccc2)cc1OCC | / | / | / | 6.0% | 0.4 | 29
O=C1COc2ccc(S(=O)(=O)N3CCC(C(=O)NCc4ccc(F)cc4)CC3)cc2N1 | -3 | -0.1 | -3 | 1.1% | 0.3 | -3
CCOc1cc2[nH]c(=O)n(CCCCCC(=O)NCc3ccco3)c(=O)c2cc1OCC | 0 | -0.1 | -3 | 12%[38.3 µM] | 0.4 | 6
O=C(OCc1ccc(Br)cc1)c1cccnc1 | 29 | 1.5 | -11 | 2.8% | 0.8 | -14
COc1ccc(CCNc2ccc(S(N)(=O)=O)cn2)cc1 | 1 | -1.0 | -7 | 1.7% | -0.3 | -2
COc1cccc(C2C(C(=O)Nc3ccccc3)=C(C)Nc3nnnn32)c1OC (configuration not stated) | / | / | / | -0.2% | 0.2 | 6
Cc1ccc(Cn2cccc(NC(=O)c3ccco3)c2=O)cc1 | -1 | -2.4 | -8 | -1.9% | 1.8 | 19
Cc1ccc(Cl)c(NC(=O)CSc2n[nH]c(=O)n2C2CC2)c1Cl | -1 | -0.2 | 5 | -1.0% | -1.0 | -9
O=C(Nc1sc2c(c1C(=O)NCC1CCCO1)CCC2)c1cc(=O)c2ccccc2o1 (configuration not stated) | / | / | / | 0.6% | -0.4 | -1
COc1cccc(N2CCN(CC(=O)c3c[nH]c4ccc(OC)cc34)CC2C)c1 (configuration not stated) | ? | -2.9 | -7 | 5.2% | -0.5 | 21
CC(=O)Nc1ccc(C)cc1-c1nc2ccccc2n(CC(=O)c2ccc(Cl)cc2)c1=O | / | / | / | 3.0% | 0.0 | 19
C[C@H](CO)N1C[C@H](C)[C@H](CN(C)C(=O)c2cc(-c3ccccc3)on2)OCc2cnnn2CCCC1=O | -22 | -13 | -2 | 1.4% | -0.3 | 37
CC1(C(=O)Nc2ccccc2)Cc2ccccc2C(=O)O1 (configuration not stated) | 1 | 3.2 | -8 | 0.3% | 0.4 | 2
COc1cc(/C=C/C(=O)OCN2C(=O)c3ccccc3C2=O)ccc1OC(F)F | 0 | -6.3 | -9 | 0.6% | 2.2 | 13
O=S(=O)(c1ccc(-c2n[nH]c(=S)o2)cc1)N1CCCC1 | -2 | -1.7 | -9 | 0.7% | -0.3 | -9
COC(=O)c1ccc(NC(=O)CCn2cnnn2)cc1 | / | / | / | -1.1% | -0.4 | 6
CN(C(=O)COC(=O)C1CCN(S(=O)(=O)c2c(Cl)cccc2Cl)CC1)c1ccccc1 | -2 | -1.4 | -18 | 0.4% | 4.5 | 14
CCCn1c(SCC(=O)Nc2ccc(S(=O)(=O)N(C)C)cc2)n[nH]c1=O | -1 | 0.4 | -7 | 1.2% | -0.3 | 3
NC(=O)CSc1ncnc2c1nnn2Cc1ccc(F)cc1 | 3 | 1.1 | -3 | -0.4% | 0.3 | -1
Cc1cccc(NC(=O)CSc2nc(-c3ccco3)cc(C(F)(F)F)n2)c1C | / | / | / | 9.1% | -0.2 | 5
O=C(NCCOC(=O)Nc1cccc2ccccc12)OCc1ccccc1 | 1 | -4.3 | -3 | 1.1% | 5.0 | 14
CCN(CC)c1ccc(C(=O)NNC(=O)CCl)cc1 | 2 | -14 | -15 | 14% | 0.0 | 27
COc1ccc(-c2ccc(/C=N/N3C(=O)C4C5C=CC(C6CC56)C4C3=O)o2)c([N+](=O)[O-])c1 (configuration not stated) | -23 | -5.9 | -27 | 3.0% | -0.3 | -8
COc1cc(C(=O)Nc2ccc(S(=O)(=O)N3CCOCC3)cc2)c([N+](=O)[O-])cc1OC | -5 | 0.5 | -10 | -3.0% | 2.0 | -6

Single records, from the list above. Screens in order: Six1-Eya2 inh, D2 agonist, D2 potentiator, PINK1 expr mod, TRPML1 ag, TRPML1 inh
Cc1cccc(NC(=O)CSc2nc(-c3ccco3)cc(C(F)(F)F)n2)c1C in the list: /, /, /, 9.1%, -0.2, 5
Cc1ccc(Cn2cccc(NC(=O)c3ccco3)c2=O)cc1 in the list: -1, -2.4, -8, -1.9%, 1.8, 19
CN(C(=O)COC(=O)C1CCN(S(=O)(=O)c2c(Cl)cccc2Cl)CC1)c1ccccc1 in the list: -2, -1.4, -18, 0.4%, 4.5, 14

Back to the main list with the two entries that preceded the break.
SMILES | Six1-Eya2 inh | D2 agonist | D2 potentiator | PINK1 expr mod | TRPML1 ag | TRPML1 inh
COc1ccc(-c2ccc(/C=N/N3C(=O)C4C5C=CC(C6CC56)C4C3=O)o2)c([N+](=O)[O-])c1 (configuration not stated) | -23 | -5.9 | -27 | 3.0% | -0.3 | -8
COc1cc(C(=O)Nc2ccc(S(=O)(=O)N3CCOCC3)cc2)c([N+](=O)[O-])cc1OC | -5 | 0.5 | -10 | -3.0% | 2.0 | -6
CCCNC(=O)c1n[nH]c2c1CC(C(C)(C)CC)CC2 (configuration not stated) | 4 | 1.0 | -10 | 3.0% | 0.3 | 9
CCc1ccc(C(=O)NC(CC(C)C)C(=O)O)cc1 (configuration not stated) | 3 | -2.2 | -5 | 9.6%[38.3 µM] | -0.2 | -2
Cc1ccc(S(=O)(=O)Nc2ccc(S(=O)(=O)NCC3CCCO3)cc2)cc1 (configuration not stated) | 7 | 7.7 | 2 | 0.8% | 0.2 | -9
Cc1ccc(N2CCN(C(=O)c3cccs3)CC2)cc1C | -4 | -1.9 | -2 | 1.2% | 0.4 | 14
Cc1ccc(NC(=O)C2C3CCC(O3)C2C(=O)O)cc1Cl (configuration not stated) | 1 | 8.5 | 14 | 12% | / | /
CCC1ON(c2ccccc2)C2c3nc4ccccc4n3CC12 (configuration not stated) | 4 | -0.1 | -8 | -0.4% | -1.0 | -1
CCOC(=O)C=C(OC(=O)c1ccc(OC)cc1)c1ccccc1 | 22 | -4.4 | -5 | -1.6% | 3.8 | 30
O=C(/C=C/c1ccccc1)N/C(=C\c1ccco1)C(=O)NCCO | 0 | 1.1 | 12 | 2.0% | -0.2 | -6
CCc1ccc(OCC(=O)N/N=C/c2ccc(OS(=O)(=O)c3ccc(C)cc3)c(OC)c2)cc1 | -1 | -0.3 | -7 | -1.2% | 1.3 | 12
COc1ccc(C(=O)CN2Cc3ccccc3C2=N)cc1 | 8 | -5.3 | -25 | -0.7% | -0.3 | 7
Cc1ccc(-n2ncc3c(NCCc4ccccc4)ncnc32)cc1 | / | / | / | 2.8% | -0.4 | -5
COc1ccc(NC(=O)C2CCN(S(=O)(=O)c3ccc(OC)c(OC)c3)CC2)cc1 | -1 | -1.9 | -4 | -1.3%[38.3 µM] | 0.3 | 15

High-throughput results from PubChem BioAssay.

Outcome played no part in choosing rows (roughly 1% active in at least one column).
